Vif TR-FRET = inhibitors of Vif binding to APOBEC3G peptide, primary screen, biochemical, TR-FRET, GST-Vif 1-94, biotin-A3G peptide, dose response retest (AID 1117319). TR-FRET GST-Vif / biotin-A3G peptide binding; higher % means a stronger effect; test concentration not given here; strong numbers were not always called active. 260,000 compounds, 0.57% hits. inhibition, %, or IC50 in µM where a hit was titrated;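 active means above the screen mean plus three standard deviations and confirmed in dose response; inconclusive means results disagree or hit not tested in dose response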;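 further: Vif residues 1-94 fused to GST binding biotinylated APOBEC3G peptide 110-148; 0% = full assay without inhibitor and 100% = GST in place of GST-Vif; retest series ran down from 100 µM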
E coli growth = E. coli growth inhibition | 330,000 compounds, 0.21% hits | Escherichia coli growth, OD600, 23 h; stronger effect = lower value | OD600 absorbance (concentration not given with the values);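 active means OD600 absorbance below the run mean of sample wells minus 3.6 SD, in any replicate, cut at about 0.56 in these data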;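 further: stock transfer was 300 nL into about 60 µL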
LANA-H2B inh = blocks KSHV LANA binding to histone H2A/H2B | Q9QR71 | cell-free LANA-H2A/H2B peptide, fluorescence polarization | inhibition, % (concentration not given with the values) | 320,000 compounds, 0.6% hits | AID 2629; in the data active means inhibition mostly above about 10%, no sharp cut-off; inactive means mostly below about 6.7%;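 further: stock transfer was 7.5 nL into about 10 µL; 0% = median of vehicle wells and 100% = median of positive control wells; one replicate is shown; the record names a cut of 25% in any replicate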
HNF4A DNA FP = change in binding of human HNF4 alpha to DNA; P41235; HNF4a-FITC DNA binding, fluorescence polarization, 1 h; activity change, % at 10 µM; 360,000 compounds, 0.3% hits; in the data active means activity change above about 30%, passing the limit was not always enough;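 further: controls were the assay level and a saturating level of protein; the project sought stronger binding though the title names inhibitors; some compounds called inactive have numbers as strong as hits; positive values seem to mean higher polarization but the record does not say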
Bfl-1 A1 inh = inhibitors of the anti-apoptotic protein A1, read as caspase activation; MEF A1-2A-BIM cells, Caspase-Glo 3/7 luminescence, 3 h; percent of clofoctol response, vehicle zero; caspase activation, % (no concentration beside the values); 330,000 compounds, 0.066% hits;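 active means over half of replicate activation scores above 10%, or exactly half above 10 with the replicate mean above 10; inconclusive means replicate mean below 10 yet half the replicates above 10; inactive means over half of replicates below 10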;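 further: wells of about 30 µL received 50 nL stock; many hits fall short of the cut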
Beta2AR agonist = activates human beta-2 adrenergic receptor causing internalization | response, % (no concentration beside the values) | P07550 | 340,000 compounds, 0.43% hits | Am2.2-beta2AR cells, FAP receptor internalization, flow cytometry; reference of the scale not given here;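 active means response above a set limit, near 3 SD of response in nonfluorescent compounds, cut at about 42% in these data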;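 further: stock transfer was 100 nL into about 11 µL; a reference agonist was the positive control; negative values mostly stem from fluorescent compounds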
Target sequence (P07550 whole entry, looked up): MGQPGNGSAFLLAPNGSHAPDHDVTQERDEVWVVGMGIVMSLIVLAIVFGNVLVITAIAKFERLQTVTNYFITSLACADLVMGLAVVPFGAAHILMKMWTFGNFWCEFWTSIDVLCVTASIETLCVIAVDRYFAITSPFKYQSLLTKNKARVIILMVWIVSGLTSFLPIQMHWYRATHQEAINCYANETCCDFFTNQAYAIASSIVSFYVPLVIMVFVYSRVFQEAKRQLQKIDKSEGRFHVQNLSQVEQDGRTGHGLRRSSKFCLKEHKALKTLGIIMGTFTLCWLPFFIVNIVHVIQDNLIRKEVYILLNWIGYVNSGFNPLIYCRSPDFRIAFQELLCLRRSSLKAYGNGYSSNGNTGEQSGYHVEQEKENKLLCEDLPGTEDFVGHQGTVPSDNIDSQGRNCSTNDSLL
UCH37 inh = inhibitors of human deubiquitinating enzyme UCH37 | 330,000 compounds, 0.33% hits | inhibition, % (no concentration beside the values) | purified proteasome/UCH37, Ub-AMC cleavage fluorescence | AID 588478 | Q9Y5K5;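 active means mean of two replicates above 20%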;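 further: 0% = compound-free wells with enzyme and 100% = wells lacking proteasome; stock transfer was 100 nL into about 20 µL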
Target sequence (Q9Y5K5 whole entry, looked up): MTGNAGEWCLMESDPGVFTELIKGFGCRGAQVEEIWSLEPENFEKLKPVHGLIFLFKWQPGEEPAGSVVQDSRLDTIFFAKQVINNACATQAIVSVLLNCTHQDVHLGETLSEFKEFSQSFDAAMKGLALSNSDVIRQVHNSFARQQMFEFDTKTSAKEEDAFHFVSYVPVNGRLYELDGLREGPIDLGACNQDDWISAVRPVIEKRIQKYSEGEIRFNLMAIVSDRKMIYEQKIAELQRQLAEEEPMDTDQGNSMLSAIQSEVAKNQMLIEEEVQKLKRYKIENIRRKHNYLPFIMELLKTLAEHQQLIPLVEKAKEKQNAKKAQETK
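system = Proteasome-associated human UCH37 deubiquitinase | amount = 0.15 nM proteasome as dispensed | medium = pH 7.4 Tris-HCl (50 mM) with ovalbumin, ATP-MgCl2, DTT | incubation = 30 min preincubation with enzyme, 25 min cleavage at room temperature | detection = AMC fluorescence 355/460 nm | read-out basis = percent inhibition | controls = no-proteasome and no-compound wells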
Active calls of the source: *; i = inactive; u = inconclusive; x = no result given. Rows are unselected; about 2.1% have a hit in one of these screens.

canonical_smiles,HNF4A DNA FP,Bfl-1 A1 inh,E coli growth,UCH37 inh,LANA-H2B inh,Beta2AR agonist,Vif TR-FRET
NCc1c(O)ccc2ccccc12,x,-0.4,x,x,0.1,x,0%
O=C(c1ccccc1)c1ccc(Cn2cc(CCCO)nn2)cc1,-1.0,-0.3,0.61,0.0,4.4,-12,x
Cc1cccc(OCC(=O)NCc2nnc3ccc(C(F)(F)F)cn23)c1C,-1.9,0.2,0.68,1.8,-5.2,4,-3%
COC(=O)c1cccnc1Oc1ccccc1,-1.4,0.0,0.7,0.4,1.3,1,-3%
CCCC(=O)NC(=S)Nc1cccc2c(O)cccc12,13,1.8,0.68,3.6,1.9,-9,5%
COc1ccc(S(=O)(=O)N(NC2=NS(=O)(=O)c3ccccc32)C(=O)C(C)C)cc1,0.2,0.5,0.68,1.2,-1.2,-1,-3%
O=C(/C=C/c1ccc(O)c(O)c1)OC(Cc1ccc(O)c(O)c1)C(=O)O (stereo not drawn),-3.0,-0.2,x,x,-0.8,-2,x
COCCN(C(=O)CCl)C(C(=O)NC1CCCCC1)c1ccccc1C (stereo not drawn),2.0,0.0,0.71,3.3,1.1,3,x
CCOC(=O)N1CCN(C(=O)C2CCN(S(=O)(=O)c3ccc(OC)cc3)CC2)CC1,-2.2,-0.5,0.71,2.0,0.0,14,x
CCOc1ccc(OCc2ccc(C(=O)N(CC)CC)cc2)cc1,1.8,-1.2,0.69,1.7,1.3,3,6%
CCCN1C(=S)c2ccccc2C1c1ccccc1 (stereo not drawn),3.0,0.0,0.68,0.5,-1.8,2,x
Cc1ccc(N2CC(C(=O)N3CCC(C(=O)Nc4nnc(C(C)C)s4)CC3)CC2=O)cc1 (stereo not drawn),-2.6,-0.9,0.66,5.6,0.6,-3,15%
COc1ccc(C2=Nn3c(nnc3-c3ccco3)SC2)cc1,-4.8,-0.5,0.66,5.9,-1.1,-20,4%
CN(Cc1cccs1)C(=O)Cc1c[nH]c2ccccc12,0.0,-0.6,0.68,3.7,-1.6,13,30%
COc1cccc(C(=O)NCCCNC(=O)c2cccnc2)c1,1.1,0.5,0.7,0.9,1.7,-1,x

More entries:
canonical_smiles,HNF4A DNA FP,Bfl-1 A1 inh,E coli growth,UCH37 inh,LANA-H2B inh,Beta2AR agonist,Vif TR-FRET
Cc1cccc(N(C(=O)c2csnn2)C(C(=O)NC(C)(C)C)c2ccncc2)c1 (stereo not drawn),-3.4,0.1,0.64,-0.4,1.6,6,3%
[O-]c1n[n+](-c2ccc(Cl)cc2Cl)cc2ccccc12,-1.4,-0.8,0.64,5.4,-6.0,-5,3%
COc1ccc(NC(=O)c2cc(OC)c(OC)c(OC)c2Br)cc1OC,1.5,1.1,0.65,3.5,5.1,-4,32%
Cc1ccc(C(=O)N/N=c2\oc3ccccc3cc2C(N)=O)cc1,3.4,-0.7,x,x,2.7,-5,x
CC(C(=O)Nc1ccc([N+](=O)[O-])cc1Cl)N1CCN(S(=O)(=O)c2cccs2)CC1 (stereo not drawn),2.1,-0.1,0.71,6.9,-0.6,19,x
Cc1c(C)c2c(OCC(=O)NCC(=O)NCC(=O)O)cc3c(c2oc1=O)CCC(C)(C)O3,1.8,-0.7,0.68,i,-4.3,-10,0%
O=C(CCC(=O)N1CCCc2ccccc21)N1CCN(S(=O)(=O)c2ccccc2)CC1,1.2,1.2,0.74,0.4,0.3,1,4%
COc1cccc(OCCOCCOc2ccc(C)cc2[N+](=O)[O-])c1,-0.9,1.0,0.7,1.6,-0.7,-1,8%
O=C(OCC(=O)N1CCCc2ccccc21)c1ccc(C(F)(F)F)cc1,-3.0,0.6,0.61,2.9,1.2,-8,6%
COc1cc(/C=C2\SC(=S)N(CC(=O)O)C2=O)ccc1OC(=O)c1ccco1,28,-1.7,0.66,11,-4.6,2,x
CCCOC(=O)c1ccc(-c2ccc(C=O)o2)cc1,1.4,0.5,0.69,0.8,x,-4,-2%
CC(=O)Nc1ccc(S(=O)(=O)NC2CC2)cc1,2.2,-0.4,0.69,4.1,0.9,1,x
Cc1cc(C)cc(C(=O)NCC(=O)OCC(=O)N(C)C2CCS(=O)(=O)C2)c1 (stereo not drawn),-1.5,-0.6,0.64,1.6,-1.9,3,-8%
Cc1cc2oc(C(=O)Nc3ccc(S(=O)(=O)N4CCCC(C)C4)cc3)cc(=O)c2cc1Cl (stereo not drawn),1.3,1.1,0.68,-95,-7.9,-3,-6%
COC(=O)NCN1C(=O)C2C3C=CC(C3)C2C1=O (stereo not drawn),0.1,0.8,0.67,2.6,-0.6,2,-3%

Next entries.
canonical_smiles,HNF4A DNA FP,Bfl-1 A1 inh,E coli growth,UCH37 inh,LANA-H2B inh,Beta2AR agonist,Vif TR-FRET
CC(C)(CCO)Nc1ncnc2onc(-c3ccc(F)cc3)c12,-2.0,1.0,0.7,1.4,-3.3,-4,-3%
Cn1c(SCC(=O)NCCc2ccccc2)nnc1C1CCCCC1,3.1,0.5,0.67,2.2,1.6,-2,x
CC(=O)Nc1cccc(/C(C)=N\NC(=O)c2ccc(Cn3nc([N+](=O)[O-])c(Cl)c3C)o2)c1,0.1,-0.1,x,x,-10,-1,2%
CCOC(=O)/C(=C\c1ccccc1)C(=O)CCN1CCOCC1,5.2,x,x,x,x,15,5%
CCCN(C(=O)c1nc2nc(C)cc(C)n2n1)c1c(N)n(Cc2ccccc2)c(=O)[nH]c1=O,0.4,0.2,0.72,2.9,1.5,-8,x
CCOc1ccccc1Nc1ccc(C(=O)O)cc1[N+](=O)[O-],-1.3,1.1,0.67,0.2,-1.9,8,0%
CCn1c(SCC(=O)NNC(=O)c2ccc(C)cc2)nnc1-c1ccco1,0.0,0.5,0.68,0.8,-9.7,-6,x
N#Cc1cc2c(nc1SCc1ccc(Cl)cc1)CCCC2,0.9,1.1,0.73,3.2,1.4,-9,-2%
O=C(CS(=O)CC(=O)NC12CC3CC(CC(C3)C1)C2)Nc1ccc(F)cc1 (stereo not drawn),0.1,-0.5,0.65,2.0,-0.3,3,1%
O=C(CCl)Nc1cccn2ncnc12,0.4,0.2,0.7,-1.2,2.1,0,1%
CCN1CCn2c3c(c4cc(C)ccc42)CCCC31 (stereo not drawn),-3.5,-0.3,0.72,1.6,3.0,13,6%
Cc1ccc(OCCCCN2CCC(C)CC2)cc1,1.1,0.2,0.69,0.8,1.8,6,-5%
Cc1cc2c(cc1C)-c1c(ssc1=Nc1ccc(S(N)(=O)=O)cc1)C(C)(C)N2,-0.8,1.7,0.68,4.3,-4.2,17,3%
CC1(C)Nc2ccccc2C(=O)N1c1ccc(Br)cc1,1.7,-5.8,0.67,-246,0.0,-9,x
CCCCC(=O)N1CC(=O)Nc2ccc(F)cc2C1c1ccc(F)cc1 (stereo not drawn),-1.2,0.3,0.66,1.0,3.3,6,-1%

Quoted from the listing.
Cc1ccc(C(=O)N/N=c2\oc3ccccc3cc2C(N)=O)cc1 @ Bfl-1 A1 inh = -0.7
COc1cccc(OCCOCCOc2ccc(C)cc2[N+](=O)[O-])c1 @ LANA-H2B inh = -0.7
CCN1CCn2c3c(c4cc(C)ccc42)CCCC31 (stereo not drawn) @ UCH37 inh = 1.6
CC(C)(CCO)Nc1ncnc2onc(-c3ccc(F)cc3)c12 @ HNF4A DNA FP = -2.0

Looked up by structure from the entries so far, 2 records:
canonical_smiles,HNF4A DNA FP,Bfl-1 A1 inh,E coli growth,UCH37 inh,LANA-H2B inh,Beta2AR agonist,Vif TR-FRET
CCN1CCn2c3c(c4cc(C)ccc42)CCCC31 (stereo not drawn),-3.5,-0.3,0.72,1.6,3.0,13,6%
O=C(CS(=O)CC(=O)NC12CC3CC(CC(C3)C1)C2)Nc1ccc(F)cc1 (stereo not drawn),0.1,-0.5,0.65,2.0,-0.3,3,1%

Continued.
canonical_smiles,HNF4A DNA FP,Bfl-1 A1 inh,E coli growth,UCH37 inh,LANA-H2B inh,Beta2AR agonist,Vif TR-FRET
CC1(c2nnc(-c3ccc(Cl)cc3)o2)CC(c2ccc([N+](=O)[O-])cc2)=NO1 (stereo not drawn),-2.6,0.2,0.66,-1.6,-9.6,-6,2%
COc1ccc(OCCNC(=O)c2cccc(Oc3ccc(C(F)(F)F)cc3[N+](=O)[O-])c2)cc1,1.1,0.2,0.69,3.4,0.1,-3,u
COc1ccc(/C=N/NC(=O)c2ccccc2[N+](=O)[O-])cc1CN1CCc2cc(OC)c(OC)cc2C1C (stereo not drawn),1.7,0.3,x,x,-3.3,0,15%
CCOC(=O)C1C2C=CC3(CN(Cc4ccco4)C(=O)C13)O2 (stereo not drawn),2.8,u,0.74,1.6,2.8,3,18%
C=C(C)C1CC=C(CN2CC(C)OC(C)C2)CC1 (stereo not drawn),-0.1,0.4,x,17,3.4,-4,-1%
COc1ccc(NC(=O)CC2(CC(=O)O)CCCC2)cn1,-2.7,0.8,0.72,3.3,-2.3,9,-3%
O=C(CSc1nc(N2CCOCC2)nc(N2CCOCC2)n1)Nc1cccc(C(F)(F)F)c1,4.6,0.3,0.74,1.9,-4.0,-2,4%
CSc1cccc(NC(=O)CSc2nc3ccccc3o2)c1,0.8,0.4,0.65,4.2,-1.2,-1,13%
COC(=O)c1c(C)oc(C)c1S(=O)(=O)NCc1ccco1,-0.8,1.0,0.68,-0.2,7.0,-5,-7%
COc1ccc(-c2cn3cc(C)ccc3n2)cc1OC,2.1,-1.0,0.67,-300,-1.4,-13,-1%
NNC(=O)c1sccc1OCc1cccc(C(F)(F)F)c1,-3.4,0.1,0.68,0.4,0.9,6,-3%
Cc1ccn2c(c1)nc(=S)n2C(=O)c1ccccc1,3.7,-0.7,0.71,4.1,-1.8,-18,10%
Cc1ccc(NS(=O)(=O)c2cc(C(=O)Nc3cccc([N+](=O)[O-])c3)ccc2C)cc1,-0.7,1.0,0.68,3.4,1.5,3,30%
Cc1ccc(-c2nn3c(C)nnc3c3ccccc23)cc1S(=O)(=O)N(C)CCO,-0.2,1.4,0.68,1.1,-6.0,-1,-6%
O=C(CCc1nnc(Cc2c[nH]c3ccccc23)o1)NC(C1CC1)C1CC1,4.3,0.0,0.75,-1.6,1.9,-6,4%
CCN(C(=O)CCc1nc(-c2ccccc2F)no1)c1cc(OC)ccc1OC,-5.8,x,0.69,x,x,-2,76%
O=C(CCN1CCN(C/C=C/c2ccccc2)CC1)Nc1ccc(Cl)cc1,5.0,-0.1,0.65,2.6,7.2,-8,x
